KCNQ2 inh = KCNQ2 channel blockers in CHO-K1 cells – cell-based, FluxOR thallium flux, B-score, primary screen (AID 2156). 20 min; stronger effect = lower value; only compounds with negative scores are shown here; some inactives read as strong as hits. B-score at 10 µM. O88943. 310,000 compounds, 1.1% hits;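 active means fluorescence ratio B-score at most minus 3 library SDs, with starting brightness B-score within 2 library SDs, cut at about -5.5 in these data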
Target sequence (O88943 whole entry, looked up): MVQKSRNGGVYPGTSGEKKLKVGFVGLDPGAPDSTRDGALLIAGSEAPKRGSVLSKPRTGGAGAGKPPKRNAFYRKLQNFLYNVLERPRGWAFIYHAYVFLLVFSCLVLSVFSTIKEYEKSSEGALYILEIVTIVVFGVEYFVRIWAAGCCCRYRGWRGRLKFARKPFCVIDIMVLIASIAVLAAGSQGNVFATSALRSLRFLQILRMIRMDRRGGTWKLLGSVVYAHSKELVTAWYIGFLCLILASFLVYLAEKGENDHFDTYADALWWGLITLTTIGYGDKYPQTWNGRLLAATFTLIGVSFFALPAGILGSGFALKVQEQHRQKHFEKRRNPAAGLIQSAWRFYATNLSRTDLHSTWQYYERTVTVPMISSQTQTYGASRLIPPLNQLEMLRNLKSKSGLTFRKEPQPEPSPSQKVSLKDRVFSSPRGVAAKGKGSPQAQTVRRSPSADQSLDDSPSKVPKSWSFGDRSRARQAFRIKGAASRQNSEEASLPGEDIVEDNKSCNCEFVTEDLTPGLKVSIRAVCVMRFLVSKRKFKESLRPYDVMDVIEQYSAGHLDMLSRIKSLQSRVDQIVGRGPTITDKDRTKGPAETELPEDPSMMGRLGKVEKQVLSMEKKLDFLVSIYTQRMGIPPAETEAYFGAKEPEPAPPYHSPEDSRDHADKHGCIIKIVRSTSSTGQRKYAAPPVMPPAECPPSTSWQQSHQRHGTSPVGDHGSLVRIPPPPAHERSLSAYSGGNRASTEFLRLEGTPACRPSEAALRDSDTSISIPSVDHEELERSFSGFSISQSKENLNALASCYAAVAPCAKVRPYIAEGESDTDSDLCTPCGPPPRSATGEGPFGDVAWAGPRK
KCNQ2 inh baseline = second read-out of KCNQ2 inh, no call of its own (marks repeat the call); B-score; measured here: initial fluorescence intensity artifact check;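 brightness before thallium and not channel activity; 0 = typical well and far values either way flag optical interference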
* marks the source's active call; other numbers are inactive results; i = inactive.

compound	KCNQ2 inh	KCNQ2 inh baseline
Cc1cccc(NC(=O)CCC2CCN(Cc3nccs3)CC2)c1	i	0.58
Clc1ccc(CO/N=C/c2c(-c3ccccc3)nc3n2CCS3)c(Cl)c1	i	-0.18
OCC[C@@H]1C[C@H](O)[C@@H](O)[C@@]2(OCc3ccccc32)O1	i	-0.64
CCC12CN3CC(CC)(CN(C1)C3c1c(O)ccc3ccccc13)C2=O (configuration not stated)	i	-1.3
Cc1ccccc1-c1nc(C#N)c(N2CCCCC2)o1	i	-0.06
COc1ccc(/C=C/C(=O)NC(=S)NNC(=O)c2cccnc2)cc1	i	1.5
CC1CN(C(=O)CCCN2C(=O)c3ccccc3C2=O)CC(C)O1 (configuration not stated)	i	0.91
C=C1c2cc(C)ccc2NC(=O)N1c1ccccc1	i	-1.8
Cc1cccc(NCC(=O)N/N=C\c2c[nH]c3ccccc23)c1	i	1.6
Cc1ccc(NC(=O)CCC(=O)NNC(=O)c2ccco2)cc1C	i	-0.12
COc1ccc(S(=O)(=O)Oc2cccc(/C=N/N=C3/NC(=O)C(CC(=O)O)S3)c2)cc1 (configuration not stated)	i	-0.88
COCCN1Cc2cccc(C(=O)Nc3c(C)cccc3C)c2C1=O	i	-0.07
O=C(O)c1ccc2noc(-c3ccccc3)c2c1	i	-0.05
CCOC(=O)N1CCN(CCC(=O)Nc2cccc(C)c2)CC1	i	-0.67
Cc1cc(C(=O)Nc2c(F)cc(F)cc2Br)no1	i	0.06
O=C(c1ccc([N+](=O)[O-])cc1)N1CCSC1c1cccc(Cl)c1 (configuration not stated)	i	0.66
CCOP(=O)(OCC)C(Nc1cccc(C(F)(F)F)c1)c1ccc(Br)cc1 (configuration not stated)	i	-0.03
O=S(=O)(NC(=NC1CCCC1)C(F)(F)F)c1ccccc1	i	-0.1
Cn1c(COc2cccc3ccccc23)nnc1SCC(=O)OC1CCCCC1	i	-0.02
O=C(CN1CCC(n2nnc3cc(F)ccc32)CC1)N1CCc2ccccc2C1	i	-0.87

As a working copy, part of the list above:
compound	KCNQ2 inh	KCNQ2 inh baseline
COc1ccc(S(=O)(=O)Oc2cccc(/C=N/N=C3/NC(=O)C(CC(=O)O)S3)c2)cc1 (configuration not stated)	i	-0.88
COCCN1Cc2cccc(C(=O)Nc3c(C)cccc3C)c2C1=O	i	-0.07
O=C(O)c1ccc2noc(-c3ccccc3)c2c1	i	-0.05

Further structures.
compound	KCNQ2 inh	KCNQ2 inh baseline
CC1C(=O)N2CCCc3cc(NC(=O)C(=O)NCCc4c[nH]c5ccccc45)cc1c32 (configuration not stated)	i	-0.91
Cc1ccc(CSc2ncnc3c2cnn3-c2ccccc2)cc1	i	-0.49
Cc1ccc(C)c(NC(=O)CSc2ccc(-c3cccs3)nn2)c1	i	0.03
O=C(Nc1cccc(Br)c1)c1ccc(CN2CCc3ccccc3C2)cc1	i	-1.4
CCOc1cc(C)c(S(=O)(=O)N2CCCC2)cc1C	i	-0.13
O=C(CCN1C(=O)/C(=C/c2ccc3c(c2)OCO3)SC1=S)Nc1cccc(C(=O)O)c1	i	1.9
O=C(Nc1cccc([N+](=O)[O-])c1)NC1CCS(=O)(=O)C1 (configuration not stated)	i	-0.1
N#Cc1nc(-c2ccco2)oc1NCc1ccc(F)cc1	i	-0.53
CCCCC(=O)N(Cc1nc2sc(C)c(C)c2c(=O)[nH]1)C1CCCC1	i	0.6
CCN1CCCc2cc(CN(CCN3CCOCC3)C(=S)Nc3cccc(C)c3)ccc21	i	-1.3
CC(=O)c1cccc(N=Nc2c(C)[nH]c3ccccc23)c1	i	-0.45
CCn1c(=O)cc(OCC(=O)NCc2cccs2)c2ccccc21	i	0.69
CC(=O)Nc1sc(N/N=C/c2ccc(C)cc2)nc1-c1ccc(C)cc1	i	-0.16
COc1ccc(N2C(=O)Cc3ccccc3C2=O)cc1	i	0.89
CCOC(=O)c1nn(-c2ccc([N+](=O)[O-])cc2)cc1O	i	-0.01
CCn1c(=O)c2ccccc2n2c(SCC(=O)NCc3cccs3)nnc12	i	1.8
COc1ccc(-n2c(SC(C)C(=O)Nc3ccc(NC(C)=O)cc3)nc3ccccc3c2=O)cc1OC (configuration not stated)	i	1.8
CC(C)C(c1nnnn1C1CCCC1)N1CCc2ccccc21 (configuration not stated)	i	-1.7
CCCCC(=O)NC(=S)Nc1ccccc1N1CCCCC1	i	2.4
O=C1OC(COc2ccc(Br)cc2)CN1c1ccccc1 (configuration not stated)	i	-0.81

Ordered by formula weight (high to low): part of the list above.
compound	KCNQ2 inh	KCNQ2 inh baseline
COc1ccc(-n2c(SC(C)C(=O)Nc3ccc(NC(C)=O)cc3)nc3ccccc3c2=O)cc1OC (configuration not stated)	i	1.8
CCn1c(=O)cc(OCC(=O)NCc2cccs2)c2ccccc21	i	0.69
CCCCC(=O)NC(=S)Nc1ccccc1N1CCCCC1	i	2.4
CC(=O)c1cccc(N=Nc2c(C)[nH]c3ccccc23)c1	i	-0.45

(cont.)
compound	KCNQ2 inh	KCNQ2 inh baseline
Cc1[nH]c(=O)[nH]c(=S)c1C(=O)Nc1ccc(Cl)c(Cl)c1	i	-0.94
O=C(O)c1ccc(/C=N/N2CCN(Cc3ccc(Cl)cc3)CC2)cc1	i	-0.5
COc1cccc(C(=O)NC2CCN(C(=O)N3c4ccccc4Sc4ccccc43)CC2)c1	i	-1.3
CCCCOc1cccc(C(=O)Nc2ccccc2N2CCCC2)c1	i	-0.88
COc1ccc(N=C2S/C(=C\c3ccc(OCC(=O)O)cc3)C(=O)N2CCc2c[nH]c3ccccc23)cc1	i	0.02
O=C(Cn1ccc2ccccc2c1=O)NCC(=O)N1CCN(c2ccccc2F)CC1	i	-0.14
Cc1cccc(CC2CC(=O)N(c3ncccn3)C2=O)c1 (configuration not stated)	i	0.12
CC(=O)N1CCCc2cc(S(=O)(=O)N3CCCC(C(=O)NCc4ccccc4Cl)C3)ccc21 (configuration not stated)	i	-1.9
CCC(C)n1c(SCC(=O)NC2CCS(=O)(=O)C2)nc2ccccc2c1=O (configuration not stated)	i	-1.8
Cc1[nH]n(-c2ncc(-c3ccc(Cl)cc3)s2)c(=O)c1C(c1ccc(Cl)cc1)C(C#N)C#N (configuration not stated)	i	-2.3

Single records, as listed above. Order of values: KCNQ2 inh | KCNQ2 inh baseline
`Cc1cccc(CC2CC(=O)N(c3ncccn3)C2=O)c1` (configuration not stated) as listed: i | 0.12
`O=C(Nc1cccc(Br)c1)c1ccc(CN2CCc3ccccc3C2)cc1` as listed: i | -1.4

The results go on:
compound	KCNQ2 inh	KCNQ2 inh baseline
CCOc1ccc(C2CC(c3ccc(OC)cc3)n3ncnc3N2)cc1 (configuration not stated)	i	-0.51
O=C1CSC(c2cn(-c3ccccc3)nc2-c2cc3ccccc3o2)N1Cc1ccccc1 (configuration not stated)	i	-0.73
COc1cccc(/C(O)=C2/C(=O)C(=O)N(CCN3CCOCC3)C2c2cccnc2)c1 (configuration not stated)	i	-0.47
COc1cccc(/C=C/C(=C2/C(=O)N(c3ccccc3)N=C2C)c2ccccc2)c1OC	i	-0.24
O=C1c2cccc3cccc(c23)C(=O)N1CCN1CCN(CC(O)COc2ccccc2)CC1 (configuration not stated)	i	0.85
CCOc1ccc(NC(=O)CN2CCN(S(=O)(=O)c3ccc(Cl)cc3)CC2)cc1	i	2.5
Cc1cc(C(C)(C)C)cc(C)c1CC1=NCCN1	i	2.2
CCOC(=O)c1[nH]cnc1C(=O)O	i	-0.74
CC(C)(C)c1cc(C(=S)N2CCCC2)cc(C(C)(C)C)c1O	i	0.12
CCOc1ccc(CCNC(=O)CCNC(=O)c2ccccc2Cl)cc1OCC	i	-2.9
CSc1ccc(CN(C)C(=O)CNC(=O)CNS(=O)(=O)c2ccc(C)c(C)c2)cc1	i	-0.63
Cc1c(C(=O)OC(C)C)nnn1-c1nonc1N	i	-0.64
C/C(=N/NC(=O)CN1CCN(Cc2ccccc2)CC1)c1ccc([N+](=O)[O-])cc1	i	0.14
CC(C)(C)C(=O)CC1(O)C(=O)N(Cc2ccc(Cl)cc2)c2ccccc21 (configuration not stated)	i	1.5
COc1cccc(-c2nc(-c3ccccc3)[nH]c(=O)c2C#N)c1	i	-1.8
OCC1(CCOc2ccccc2)CCN(CC2=Cc3cc(Cl)ccc3OC2)CC1	i	-0.31
CN(C(=O)COC(=O)c1cc2ccccc2cc1O)c1c(N)n(Cc2ccccc2)c(=O)[nH]c1=O	i	2.3
COc1ccccc1NC(=O)c1ccc(S(=O)(=O)N2CCCC2)cc1	i	1.1
CC(C)C(=O)N1CCN(c2ccccc2NC(=O)c2cccc3ccccc23)CC1	-7.3*	-0.73*
CCOc1ccc(N2CC(C(=O)Nc3ccc(OC)c(S(=O)(=O)N4CCCCC4)c3)CC2=O)cc1 (configuration not stated)	i	1.6
NNS(=O)(=O)c1ccc(N2CCCC2=O)c([N+](=O)[O-])c1	i	0.31
N#Cc1ccccc1CSc1nnc(Cc2ccccc2)o1	i	0.06
CN(CC(=O)Nc1ccccc1Cl)C(=O)c1ccccc1Sc1ccccc1C#N	i	1.3
CN(C(=S)Nc1ccc(F)cc1)C(c1ccccc1)c1ccccc1	i	0.02
COc1cccc(C(=O)OCCN(C)C(C)(C)C)c1	i	4.9
C=C(C)CNC(=S)NNC(=O)c1ccncc1	i	-0.27
COc1ccc(C2C(C(C)=O)=C(O)C(=O)N2c2nccs2)cc1 (configuration not stated)	i	1.8
CC(C)C(OC(=O)c1cccc(S(=O)(=O)NCC(F)(F)F)c1)C(=O)NC(N)=O (configuration not stated)	i	0.11
CCC(=O)Nc1ccc(-c2ccc(N3CCCCC3)nn2)cc1	i	-0.95
CCc1cc(CNC(=O)CC2C(=O)NCCN2Cc2c(F)cccc2Cl)on1 (configuration not stated)	i	-0.75
O=C(CCCN1C(=O)/C(=C\c2cccs2)SC1=S)Nc1ccc(O)cc1	i	-0.2
COc1ccccc1N1CCN(S(=O)(=O)c2ccc(Cl)cc2)CC1	i	0.04
CCOC(=O)c1c(NC(=O)Cn2cnc([N+](=O)[O-])n2)sc(C)c1C	i	1.6
Cc1nc(C(F)(F)F)c(C(=O)O)cc1-c1nc(-c2ccccc2)cs1	i	-0.11
C/[N+]([O-])=C\C1C(=O)CC(C)(C)CC1=O	i	0.33
Cc1cccc(NC(=O)Nc2ccc(Br)cc2)n1	i	1.3
O=S(=O)(CCc1ccncc1)c1ccc(Cl)cc1	i	0.13
COc1cc(/C=N/N=C(N)N)ccc1OCc1ccc(Cl)cc1	-9.4*	0.01*
CC(OC(=O)CCN=C1NS(=O)(=O)c2ccccc21)C(=O)N(C)C1CCCCC1 (configuration not stated)	i	1.9
CCc1ccccc1N(C)S(=O)(=O)c1ccc2[nH]cc(C(=O)N3CCc4ccccc43)c(=O)c2c1	i	1.1

Filtered by structure: the compounds so far containing a furan ring, fused or not.
compound	KCNQ2 inh	KCNQ2 inh baseline
Cc1ccc(NC(=O)CCC(=O)NNC(=O)c2ccco2)cc1C	i	-0.12
N#Cc1nc(-c2ccco2)oc1NCc1ccc(F)cc1	i	-0.53
O=C1CSC(c2cn(-c3ccccc3)nc2-c2cc3ccccc3o2)N1Cc1ccccc1 (configuration not stated)	i	-0.73

Carrying on:
compound	KCNQ2 inh	KCNQ2 inh baseline
Nc1cc(=O)[nH]c(SCC(=O)NC2CCCc3ccccc32)n1 (configuration not stated)	i	0.55
COC(=O)C1=CN(Cc2ccc(F)cc2)C=C(C(=O)OC)C1c1cc(OC)c(OC)c(OC)c1	i	-2.3
O=C(Cn1cnc2c(nnn2-c2ccccc2)c1=O)NCCc1ccccc1	i	0.26
Cc1ccc(S(=O)(=O)N2CCOC2CNC(=O)C(=O)NCc2ccccc2)cc1 (configuration not stated)	i	0.15
CSc1ccc(S(=O)(=O)NC2CCCCCC2)cc1	i	0.78
COC(=O)Cn1c(CCS(=O)(=O)c2ccc(C)cc2)nc2ccccc21	i	-0.38
Cc1ccc(-n2ncc3c(NCc4ccc5c(c4)OCO5)ncnc32)c(C)c1	i	2.7
COCc1c(C(=O)OC)nnn1-c1ccccc1	i	-0.78
COc1ccc(OC)c(C2=NNC(=NCc3ccc4c(c3)OCO4)SC2)c1	i	-0.27
O=C(Nc1ccc(F)cc1F)NC1CC1	i	0.99
COc1ccc(N(C(=O)CCl)C(C(=O)NCCc2ccccc2)c2cccs2)cc1Cl (configuration not stated)	i	-0.33
O=C(Oc1ccc(C(=S)N2CCOCC2)cc1)c1ccccc1	i	1.3
CCN(CC)C(=O)C(=O)Nc1cccc(Br)c1	i	-0.43
COc1cccc(CCNC(=O)CC2C(=O)NCCN2CC(C)(C)C)c1 (configuration not stated)	i	-2
CCN1CCN(S(=O)(=O)c2ccc3ccccc3c2)CC1	i	0.77
CCC(=O)NCCCc1nc2ccccc2n1Cc1ccccc1F	i	-1.8
CC(C)Oc1ccc(C(CCN)C2CCCCC2)cc1 (configuration not stated)	i	-1.5
O=C(Cc1ccccc1)Nc1nnc(-c2ccco2)o1	i	-0.61
CCCNC(=O)c1cc(S(=O)(=O)N2CCc3ccccc32)cn1C	i	-0.02
O=C1CC(C(F)(F)C(F)(F)C(F)(F)F)=Nc2ccccc2N1	i	0.76
Cc1ccc(-n2nc(C)c3c(C)c(CCC(=O)NCc4ccco4)c(C)nc32)cc1	i	-0.35
Cc1csc(NC(=O)CSc2nnc(CCNC(=O)c3ccc(Cl)c(Cl)c3)n2C)n1	i	0.8
O=C(CCNC(=O)N1CC(=O)Nc2ccccc21)NCc1cccc(Cl)c1	i	-0.03
O=C(CCc1nc2ccccc2c(=O)[nH]1)OCc1nnc(-c2ccccc2)o1	i	-0.28
N/C(=N\NS(=O)(=O)c1ccccc1C(F)(F)F)c1ccccn1	i	1.5
C=CCSc1ncccc1C(=O)NCCc1ccc(Cl)cc1	i	-0.11

Not all compounds are listed; count on the stated rates, not on these rows.
